# LDHA inh = LDHA (human) enzyme inhibition. P00338. purified LDHA, NADH/diaphorase-resazurin fluorescence; hits give low values. activity change, % (values are at about 110 or 230 µM). 480,000 tested, 0.15% active. AID 1347041; in the data active = activity change below about -30%; inconclusive = mostly about -25% to -30%;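 note: plate controls were DMSO wells for no effect and wells without enzyme for full effect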
#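 Resorufin fluorescence (ex540/em590), read at 0 and 20 min after diaphorase/resazurin addition, reports the NADH left after a 5 min room-temperature reaction of 2 nM human LDH5 with 0.06 mM NADH and 0.2 mM pyruvate.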
# RXFP1 agonist = agonists of human relaxin receptor RXFP1. 370,000 tested, 0.3% active. Q9HBX9. Potency, µM (titrated, usually from 57.5 µM), without a hit: at the highest dose activation, hits mostly activators. HEK293T-RXFP1 cAMP TR-FRET, 30 min; response scale: percent of porcine relaxin response, buffer zero; note: potency is the fitted concentration of half-maximal effect; % is set by controls: 0 for no effect and ±100 for the full control effect; nearly all actives have a fitted effect of over 60% in size; many of its hits are not listed in these tables
#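 HEK293T cells stably expressing RXFP1 were pretreated with the PDE4 inhibitor Ro 20174, exposed to compounds for 30 min at 37C, lysed, and cAMP was read by TR-FRET. Data normalized to buffer (basal) and 29 nM porcine relaxin (100%).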
# PI4K2A block = PI4K2A (human) kinase inhibition | Q9BTU6 | purified PI4K2A, ADP-Glo luminescence, 1 h; hits give low values | activity change, negative = inhibition, % at 76.9 µM | 420,000 tested, 0.13% active; in the data active = activity change below about -50%; inconclusive = mostly about -30% to -49%;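 note: -100% = wells without enzyme as full effect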
# Target sequence (Q9BTU6 whole entry, looked up): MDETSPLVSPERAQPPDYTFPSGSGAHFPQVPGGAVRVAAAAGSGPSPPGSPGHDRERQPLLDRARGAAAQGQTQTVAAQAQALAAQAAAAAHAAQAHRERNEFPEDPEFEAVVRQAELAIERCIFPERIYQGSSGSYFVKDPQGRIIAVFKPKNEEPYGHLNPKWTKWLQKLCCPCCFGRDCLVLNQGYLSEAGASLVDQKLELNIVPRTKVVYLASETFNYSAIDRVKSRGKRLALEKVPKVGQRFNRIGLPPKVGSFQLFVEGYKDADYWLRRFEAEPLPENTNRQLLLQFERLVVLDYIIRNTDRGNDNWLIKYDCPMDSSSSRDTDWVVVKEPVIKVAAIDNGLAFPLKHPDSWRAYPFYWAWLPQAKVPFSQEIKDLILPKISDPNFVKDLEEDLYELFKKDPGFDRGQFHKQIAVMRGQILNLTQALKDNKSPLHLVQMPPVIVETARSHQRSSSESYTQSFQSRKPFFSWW
#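 In this quantitative HTS, ADP production by PI4K2A was quantified luminescently after 1 h at ambient temperature; 100 microM adenosine served as plate-quality control.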
# Glioma ERSR ind = ER stress response induction in glioma | Potency, µM, without a hit: top-dose activation, hits mostly activators | U87-MG GRP78 promoter luciferase reporter, 16 h | AID 602332 | 420,000 tested, 0.02% active; note: potency is the fitted concentration of half-maximal effect; series mostly up to about 76 µM; % of control where 0% means no effect; nearly all actives have a fitted effect of over 35% in size
#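 ERSR induction read as luciferase luminescence (Bright-Glo, 10 min at room temperature) in stably transfected human U87-MG glioma cells exposed to compounds for 16 h, using GRP78 as sensor.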
# IDH1 R132H inh = blocks human mutant IDH1 R132H enzyme; Potency, µM (highest dose often 76.6 µM), inactives show at the highest dose activity change, negative = inhibition, most hits filed as inhibitors; IDH1-R132H enzyme, NADPH consumption, diaphorase/resazurin fluorescence; O75874; 390,000 tested, 0.093% active; AID 602179; note: potency is the fitted concentration of half-maximal effect; % is set by controls: 0 for no effect and ±100 for the full control effect; nearly all actives have a fitted effect of over 65% in size
#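 IDH1-R132H (0.5 ug/mL dispensed) in pH 7.5 Tris buffer was preincubated 30 min with compound, then given a substrate mix of 0.016 mM NADPH and 2 mM alpha-KG for 80 min at room temperature; remaining NADPH was read by diaphorase/resazurin fluorescence.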
# Vif-APOBEC3F blk = inhibitors of Vif-A3F interaction; HeLa A3F-eYFP + Vif (tagged APOBEC3F with the HIV-1 protein that degrades it), YFP fluorescence increase; AID 602313; 390,000 tested, 0.2% active; Potency, µM (top dose mostly 46.1 µM), for inactives: at the highest dose activity, negative = active; note: potency is the fitted concentration of half-maximal effect; % of control where 0% means no effect; nearly all actives have a fitted effect of over 65% in size
#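 Fluorescence increase (Ex 488/Em 500-530) after overnight compound treatment at 37 deg C flags inhibition of Vif-driven A3F-eYFP loss in stable HeLa A3F-eYFP/Vif cells seeded overnight beforehand.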
# TrxR1 substrate = is turned over as a substrate by rat TrxR1. O89049. purified TrxR1 substrate turnover, NADPH consumption readout. Potency, µM (titrated, usually from 114 µM), for the others: at the highest dose activity change, negative = substrate turnover. 390,000 tested, 0.01% active. AID 588456; note: potency is the fitted concentration of half-maximal effect; % is set by controls: 0 for no effect and ±100 for the full control effect; nearly all actives have a fitted effect of over 50% in size
# Target sequence (O89049 whole entry, looked up): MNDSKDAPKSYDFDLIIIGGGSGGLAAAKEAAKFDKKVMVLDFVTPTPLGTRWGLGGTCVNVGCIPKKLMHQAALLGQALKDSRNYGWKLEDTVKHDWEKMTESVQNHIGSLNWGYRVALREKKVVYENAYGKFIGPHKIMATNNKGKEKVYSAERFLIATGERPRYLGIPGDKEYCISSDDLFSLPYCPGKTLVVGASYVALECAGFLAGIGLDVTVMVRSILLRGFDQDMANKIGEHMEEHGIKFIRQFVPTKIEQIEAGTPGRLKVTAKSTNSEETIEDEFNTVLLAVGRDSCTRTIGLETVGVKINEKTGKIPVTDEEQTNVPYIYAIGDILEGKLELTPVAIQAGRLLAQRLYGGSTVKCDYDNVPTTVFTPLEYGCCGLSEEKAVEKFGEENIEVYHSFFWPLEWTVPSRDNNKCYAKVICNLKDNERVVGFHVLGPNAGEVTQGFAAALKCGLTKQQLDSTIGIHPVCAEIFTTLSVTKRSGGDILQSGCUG
#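 Rat TrxR1, dispensed at 90 nM, was prereduced with 400 uM NADPH (final) for 5 min at ~22 deg C, then incubated with compound 15 min before 400 uM selenite. A first-read NADPH fluorescence drop versus no-compound background flagged substrates.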
# Vif-APOBEC3G blk = Vif-A3G binding inhibition; AID 602310; HeLa A3G-eYFP + Vif (tagged APOBEC3G with the HIV-1 protein that degrades it), YFP fluorescence, overnight; Potency, µM (highest dose often 46.1 µM), for inactives: at the highest dose activity, negative = active, actives largely listed as inhibitors; 410,000 tested, 0.076% active;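 note: potency is the fitted concentration of half-maximal effect; % is set by controls: 0 for no effect and ±100 for the full control effect; nearly all actives have a fitted effect of over 60% in size; hits raise eYFP signal because A3G escapes Vif-driven loss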
#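 HeLa cells stably expressing Vif and C-terminally eYFP-tagged A3G, seeded overnight at 37 deg C, then exposed to compound by pintool overnight at 37 deg C. Rise in yellow fluorescence (Ex 488/Em 500-530, Acumen) marks blocked Vif-driven A3G degradation.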
# * marks the source's active call; other numbers are inactive results; i = inactive; ? = inconclusive; · = not tested or not shown; & = joins results of further samples; [ ] = remark or other dose. Unless noted, calls come from the whole dose curve; as a rule, active = well fitted curve in the direction sought with a large enough effect; inconclusive = small, poorly fitted or top-dose-only effect, or another doubt; inactive = no such curve, though single readings can be large; an effect the other way counts as inactive or inconclusive. The list is partial; rates above refer to the full screens.
compound	LDHA inh	RXFP1 agonist	PI4K2A block	Glioma ERSR ind	IDH1 R132H inh	Vif-APOBEC3F blk	TrxR1 substrate	Vif-APOBEC3G blk
Cc1ccccc1-c1ccc(=O)n(CC(=O)Nc2ccc(C(=O)N3CCCC3)cc2)n1	-4	-1.7%	-3	-8%	-2%	-6%	-12%	1%
O=C(O)c1c2c(nc3ccccc13)/C(=C/c1ccc(O)cc1)CCC2	3	0.1%	-2	0%	2%	-18%	-10%	8%
CN1CCN(CCCNC(=O)CCC(=O)N2CCOc3ccccc32)CC1	-10	0.9%	-1	-5%	5%	0%	9%[57.1 µM]	-4%
O=C(CC1C(=O)NCCN1Cc1c(F)cccc1Cl)NCCC1=CCCCC1 (centres undefined)	-4	1.5%	6	-5%	4%	-3%	3%	-6%
O=C(Nc1nc2n(n1)C(c1ccc(Cl)cc1)C=C(c1ccccc1)N2)c1ccco1 (centres undefined)	1	0.2%	-3	1%	-16%	?	-5%	?
COc1ccc(C(=O)Nc2ccc(C3(C#N)CCCC3)cc2)cc1	0	2.6%	-5	0%	-1%	-4%	10%[57.1 µM]	0%
Cc1ccccc1NC(=O)c1cccc(NC(=O)CCC(=O)O)c1	-7	0.4%	3	-2%	21%	13%	7%[57.1 µM]	4%
O=C(/C=C/c1ccccc1)c1ccc2c3c(cccc13)CC2	-2	0.2%	-5	16%	6%	8%	6%[57.1 µM]	-7%
CC(=O)c1sc2nsc(SCCN3CCCC3)c2c1N	-5	-0.9%	-15	-2%	14%	?	-3%[57.1 µM]	-1%
CC(C)NC(=O)C1(S(=O)(=O)c2ccccc2)CC=CC1	-3	-0.8%	-1	-4%	-1%	0%	5%	-1%
C/C(CC(=O)C(F)(F)F)=N\NC(=O)/C(C#N)=C/N(C)C	1	-0.1%	-1	-2%	6%	-8%	-1%	1%
O=C(Nc1ccc(Cl)cc1)c1cc(S(=O)(=O)N2CCOCC2)cs1	-17	0.6%	4	1%	-5%	-3%	-5%	3%
Cn1cnc(S(=O)(=O)N2CCCC(C(=O)NCc3ccccc3)C2)c1 (centres undefined)	-5&-13	1.5%	2	-2%	-8%	1%	2%[57.1 µM]	10%
CCCCc1c(O)nc2sc3cc(OC)ccc3n2c1=O	-2	2.0%	7	-1%	2%	0%	7%[57.1 µM]	-4%
CC1CCCC(NC(=O)CCC(=O)N2CCOc3ccccc32)C1C (centres undefined)	-4	-2.1%	3	-2%	-8%	4%	3%[57.1 µM]	-1%
CCCNC(=O)COC(=O)c1cc(C)nc2ccccc12	-8	-2.9%	2	-4%	5%	8%	1%	-1%
CCN(CC)C(=O)c1[nH]cnc1C(=O)N[C@@H](C)C(=O)OC(C)(C)C	-9	2.1%	-3	-3%	-10%	-2%	3%	2%
C/C(=N\NC(=O)c1ccc([N+](=O)[O-])cc1)c1c(O)cc(C)oc1=O	-3	-2.4%	-25	-2%	0%	?	7%[11.4 µM]	-3%
FC(F)(F)c1cc(-c2cccs2)nc2cc(-c3cccs3)nn12	-3	?	-5	-3%	3%	4%	7%	3%
O=c1ccn(Cc2ccc(F)cc2)c2ccnc(C(F)(F)F)c12	-8	-0.5%	2	-3%	16%	3%	1%[57.1 µM]	2%
COc1ccc(NC(=O)C(C)N2c3cccc4cccc(c34)S2(=O)=O)cc1OC (centres undefined)	6	0.0%	-5	-3%	0%	-2%	3%[57.1 µM]	0%
CC1CN(C(=O)CCC(=O)NCCCN2C(C)CCCC2C)c2ccccc2O1 (centres undefined)	-4	1.2%	-3	-4%	-4%	-5%	13%[57.1 µM]	1%
c1ccc2[nH]c(NC3=NCCC3)nc2c1	0	0.4%	0	-2%	4%	·	3%	0%
O=C(O)CN1C(=O)SC(Nc2ccc(Cl)cc2)C1=O (centres undefined)	-4	-0.5%	-12	1%	-8%	1%	3%	1%
Cc1ccoc1C(=O)NCCNC(=O)c1occc1C	-2	0.8%	2	1%	-8%	0%	1%[57.1 µM]	2%
CCN(CC)c1cc(NCCO)c([N+](=O)[O-])c2nonc12	12	8.5%	-5	2%	1%	1%	-13%	-8%
CCC(CC)C(=O)NC12CC3CC(CC(C3)C1)C2	-3	1.2%	0	4%	5%	-17%	12%[57.1 µM]	0%
CCC(=O)c1ccccc1OCCN1CCN(Cc2ccccc2)CC1	-34*	-0.2%	3	-2%	7%	5%	5%[57.1 µM]	0%
COc1ccc(-c2c(NCCc3ccccc3)c(=O)c2=O)cc1	-10	-1.2%	3	-3%	-2%	-17%	0%[57.1 µM]	-3%
COC(=O)CCN(C(=O)c1c(C)oc2ncnc(N3CCOCC3)c12)c1ccccc1	0	-1.5%	2	-3%	0%	-12%	2%	4%

# Continued.
compound	LDHA inh	RXFP1 agonist	PI4K2A block	Glioma ERSR ind	IDH1 R132H inh	Vif-APOBEC3F blk	TrxR1 substrate	Vif-APOBEC3G blk
O=C(O)c1ccc(/C=C(\c2nc3ccccc3[nH]2)c2nc3ccccc3s2)cc1	-11	0.2%	0	4%	?	-8%	-13%	-9%
COc1ccc(/C=C/C(=O)OCC(=O)N2CCN(S(=O)(=O)c3ccc(C)cc3C)CC2)cc1OC	-10	·	5	-3%	-10%	5%	22%	2%
O=C(Cn1nc(-c2ccccc2Cl)ccc1=O)Nc1ccc(Br)cc1	-7	0.1%	6	-1%	-2%	?	6%[57.1 µM]	-3%
CCN(CC)c1ccc2cc(-c3nc(-c4cccs4)no3)c(=O)oc2c1	-11	1.3%	1	1%	-13%	·	-11%	?
C=CCN(CC=C)c1ncnc2[nH]ncc12	-9	·	1	-4%	0%	6%	-2%[2.29 µM]	1%
Cc1cc(C)c(S(=O)(=O)n2cc(C(C)C(N)C(=O)O)c3ccccc32)c(C)c1 (centres undefined)	1	1.4%	-2	-4%	-8%	7%	5%	-2%
CC(C)C[C@H](NC(=O)c1nc[nH]c1C(=O)NC1CCNCC1)C(=O)OCc1ccccc1	6	0.2%	-2	-5%	-16%	-1%	10%[57.1 µM]	2%
NC(=O)C(c1ccc(Cl)cc1)c1ccc(Sc2ccc(Cl)cc2)nn1 (centres undefined)	-2	-0.8%	0	2%	7%	-11%	-7%	-8%
O=C(NCc1ccco1)c1cccc2c1C(=O)c1ccc(N3CCCC3)cc1S2(=O)=O	1	·	-5	-1%	-5%	-1%	-2%[57.1 µM]	-10%
COC(=O)CCN(C(=O)C1C2CC3CC(C2)CC1C3)c1ccccn1 (centres undefined)	-8	1.6%	1	-4%	-5%	0%	6%[57.1 µM]	1%
CNC(=O)/C(C#N)=C/c1ccc(-c2ccc(Cl)cc2)o1	-4	-0.3%	1	9%	3%	3%	5%[57.1 µM]	-2%
CCC(Cn1nnc2ccccc2c1=O)NC(=O)Nc1ccc(C)cc1C (centres undefined)	-9	-0.8%	1	-5%	-4%	3%	1%	2%
CCOc1cc(/C=C2\CCCc3c2nc2ccccc2c3C(=O)O)ccc1OC	6	12%	-6	-5%	1%	?	-12%	11%
CC(=O)Nc1ccc(-c2csc(-c3cccnc3)n2)cc1	-3	1.8%	-5	-6%	-3%	-8%	7%	-8%
CC(C(N)=O)N1c2cccc3cccc(c23)S1(=O)=O (centres undefined)	8	0.8%	-1	-4%	8%	0%	3%	9%
CCOC(=O)/C(=C/C=C1\Sc2ccccc2N1CC)C(C)=O	-10	-1.0%	-4	0%	0%	i	?	?
CC1CCN(CCCNc2cc(NCCO)c([N+](=O)[O-])c3nonc23)CC1	-13	15%	1	-3%	0%	-11%	-6%	-1%
COC(=O)CCC(=O)OC1(C)C(=O)C=C2C=C(C3CC3)N(c3cccc(C#N)c3)C=C2C1=O (centres undefined)	14	-0.2%	-15	-2%	25%	-6%	4%	0%
COc1cc(Br)c(CC(=O)O)cc1OC	-8	0.2%	0	-3%	-1%	6%	-5%	-1%
CCc1ccccc1NC(=O)Nc1cc(F)ccc1F	-9	0.2%	0	0%	5%	1%	3%	1%
Cn1c(=O)c2c(nc(CN3CCc4ccccc4C3)n2Cc2cccc(Cl)c2)n(C)c1=O	9	1.3%	-15	0%	-6%	6%	1%[57.1 µM]	0%
O=C(Nc1cccc(C(F)(F)F)c1)c1cc2nc(-c3ccccc3)cc(C(F)(F)F)n2n1	-12	0.3%	-10	-2%	-19%	-10%	4%	5%
COC(=O)CCC(=O)OC1(C)C(=O)C=C2C=C(C3CC3)N(CCCCO)C=C2C1=O (centres undefined)	15	6.3%	-10	-1%	4%	8%	-18%	4%
COC(=O)/C(C#N)=C/c1cc(C)sc1C	-5	1.7%	2	4%	2%	3%	-3%[57.1 µM]	-1%
CC1(C)CC(/C=C/c2ccccc2)=Nc2ccccc2N1	0	-0.6%	0	?	3%	-13%	-14%	-16%

# Copied from the entries so far, 2 compounds:
compound	LDHA inh	RXFP1 agonist	PI4K2A block	Glioma ERSR ind	IDH1 R132H inh	Vif-APOBEC3F blk	TrxR1 substrate	Vif-APOBEC3G blk
O=C(O)c1ccc(/C=C(\c2nc3ccccc3[nH]2)c2nc3ccccc3s2)cc1	-11	0.2%	0	4%	?	-8%	-13%	-9%
COc1ccc(/C=C/C(=O)OCC(=O)N2CCN(S(=O)(=O)c3ccc(C)cc3C)CC2)cc1OC	-10	·	5	-3%	-10%	5%	22%	2%

# Compound profiles, from the list above.
# O=C(Nc1cccc(C(F)(F)F)c1)c1cc2nc(-c3ccccc3)cc(C(F)(F)F)n2n1 is listed as LDHA inh: -12; RXFP1 agonist: 0.3%; PI4K2A block: -10; Glioma ERSR ind: -2%; IDH1 R132H inh: -19%; Vif-APOBEC3F blk: -10%; TrxR1 substrate: 4%; Vif-APOBEC3G blk: 5%
# CNC(=O)/C(C#N)=C/c1ccc(-c2ccc(Cl)cc2)o1 is listed as LDHA inh: -4; RXFP1 agonist: -0.3%; PI4K2A block: 1; Glioma ERSR ind: 9%; IDH1 R132H inh: 3%; Vif-APOBEC3F blk: 3%; TrxR1 substrate: 5%[57.1 µM]; Vif-APOBEC3G blk: -2%

# Screening data: PubChem, National Center for Advancing Translational Sciences (NCATS)
